TRPML1 agonist = qHTS for Agonists of the Human Mucolipin Transient Receptor Potential 1 (TRPML1) | Mucolipin-1 (Homo sapiens), Q9GZU1 | TRPML1-expressing cells, Ca2+ dye fluorescence, FDSS; host cell line not named in the record; reference of the full effect not given here | activation, % (test concentration not listed) | hit rate 0.12% among 410,000 | AID 624414, 2012; in the data active = activation above about 50%; inconclusive = about 30% to 50%; inactive = below about 30%; note: 0% is about no effect; the text of the record puts the active cut at 80%
Target sequence (Q9GZU1 whole entry, looked up): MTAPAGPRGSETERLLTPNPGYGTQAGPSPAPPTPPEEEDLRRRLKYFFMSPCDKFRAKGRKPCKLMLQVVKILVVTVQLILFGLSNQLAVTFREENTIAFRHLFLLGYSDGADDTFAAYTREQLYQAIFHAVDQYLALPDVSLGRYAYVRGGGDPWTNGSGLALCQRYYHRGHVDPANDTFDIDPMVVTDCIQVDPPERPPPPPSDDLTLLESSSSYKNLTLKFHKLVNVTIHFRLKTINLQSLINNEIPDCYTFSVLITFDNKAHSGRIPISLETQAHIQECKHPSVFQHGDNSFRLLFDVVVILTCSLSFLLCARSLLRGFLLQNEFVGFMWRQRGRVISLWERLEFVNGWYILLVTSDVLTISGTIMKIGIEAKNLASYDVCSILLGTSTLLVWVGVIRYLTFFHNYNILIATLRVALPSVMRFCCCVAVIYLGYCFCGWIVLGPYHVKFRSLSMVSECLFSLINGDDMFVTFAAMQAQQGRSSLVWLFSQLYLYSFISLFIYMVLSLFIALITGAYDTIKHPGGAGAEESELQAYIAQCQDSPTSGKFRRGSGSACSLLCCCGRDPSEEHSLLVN
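Tetracycline-induced TRPML1-DL cells are seeded and incubated overnight before loading with a no-wash Ca2+ dye and quencher. Agonist activity is taken from the 110 s fluorescence read following compound pin-transfer on an FDSS, before EC80 54-4 challenge.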
ClpP mod = qHTS Assay for Activators of ClpP; ATP-dependent Clp protease proteolytic subunit (Bacillus subtilis (strain 168)), P80244; purified B. subtilis ClpP, FRET peptide cleavage, 20 min; Potency, µM (top dose mostly 57.5 µM), without a hit: at the top dose activity change, negative = active; hit rate 1.9% among 340,000; AID 651965, 2013; active = well fitted falling curve with a large enough effect; inconclusive = small, poorly fitted or top-dose-only effect; inactive = no such curve, though single readings can be large or run the other way; note: potency is the fitted concentration of half-maximal effect; the source files actives as falling curves though it sought activators and does not explain the sign; nearly all actives have a fitted effect of over 65% in size; many hits overshoot -100%
Target sequence (P80244 whole entry, looked up): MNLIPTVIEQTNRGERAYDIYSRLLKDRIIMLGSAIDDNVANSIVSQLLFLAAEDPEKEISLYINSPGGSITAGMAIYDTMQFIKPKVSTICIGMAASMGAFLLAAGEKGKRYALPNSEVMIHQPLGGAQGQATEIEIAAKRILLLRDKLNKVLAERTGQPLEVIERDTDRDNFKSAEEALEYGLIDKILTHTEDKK
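Buffer: 100 mM Tris/HCl pH8, 100 mM KCl, 0.05% low protease BSA, 2.5% glycerol, 0.01% Tween-20. ClpP 10 microg/mL final; 20 min RT; delta FRET normalized to ADEP and DMSO controls.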
gsp agonist = qHTS for Agonist of gsp, the Etiologic Mutation Responsible for Fibrous Dysplasia/McCune-Albright Syndrome: qHTS | gsp mutant cells, cAMP HTRF, 30 min; control for the full effect not named in the record | Potency, µM (series often up to 76.9 µM), inactives show at the highest dose activation (cAMP increase), actives largely listed as activators | hit rate 0.13% among 340,000 | AID 624287, 2012; active = well fitted activation curve with a large enough effect; inconclusive = small, poorly fitted or top-dose-only effect, or another doubt; inactive = no such curve, though single readings can be large or run the other way; cell line not stated here;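 note: phosphodiesterase inhibitor Ro 20-1724 added with compounds to block cAMP breakdown; potency is the fitted concentration of half-maximal effect; nearly all actives have a fitted effect of over 60% in size; about a fifth of the inactives were tested at one dose only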
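Cells stably selected in G418 were plated at 2000/well, grown 16-24 hr, then given compounds in DMSO with the PDE inhibitor […] (300 uM solution added) for 30 min at 37C; cAMP was read by HTRF.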
Menin-MLL FL inh = qHTS Assay for Inhibitors Targeting the Menin-MLL Interaction in MLL Related Leukemias: Competition With Fluorescein Labeled MLL-derived Peptide; Fluorescence polarization, fluorescein-MLL peptide displacement from menin; FP activity change, % at 61.4 µM; 290,000 tested, under 10 active; inconclusive = falling polarisation curve, or a change in total fluorescence; inactive = total fluorescence flat and polarisation flat or rising; no compound was filed as active; the % refers to the polarisation; negative = inhibition;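 note: % of control where 0% means no effect; inhibitors lower the polarisation; unlabelled MLL peptide was the positive control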
gsp antag = qHTS for Antagonists of gsp, the Etiologic Mutation Responsible for Fibrous Dysplasia/McCune-Albright Syndrome: qHTS; hit rate 0.4% among 340,000; gsp-mutant cells, cAMP HTRF, 30 min; control for the full effect not named in the record; Potency, µM (series often up to 76.9 µM), inactives show top-dose activity change, negative = inhibition, hits mostly inhibitors; active = falling curve of any shape with a large fitted effect; inconclusive = falling curve, mostly with a smaller effect; inactive = flat or rising curve; cell line not stated here;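 note: intracellular cAMP measured with PDE inhibitor Ro 20-1724 present during compound exposure; potency is the fitted concentration of half-maximal effect; % is set by controls: 0 for no effect and ±100 for the full control effect; nearly all actives have a fitted effect of over 65% in size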
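HTRF cAMP measurement after 30 min RT detection following 30 min, 37C compound treatment alongside […] (added as 300 uM solution) in G418-selected cells seeded at 2000/well and grown 16–24 h.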
TRPML1 inh = qHTS for Inhibitors of the Human Mucolipin Transient Receptor Potential 1 (TRPML1); Mucolipin-1 (Homo sapiens), Q9GZU1; TRPML1-inducible cells, Ca2+ dye fluorescence, FDSS; stronger effect = lower value; inhibition of EC80 agonist-evoked calcium signal; activity change, negative = inhibition, % (test concentration not listed); hit rate 0.02% among 390,000; AID 624415, 2012; in the data active means activity change below about -50%; inconclusive means about -30% to -50%; inactive means above about -30%;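 note: stimulus is agonist 54-4 at its EC80 concentration; % is set by controls: 0 for no effect and ±100 for the full control effect; compound concentration not given in the record; the text of the record puts the active cut at -80%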
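Calcium fluorescence in TRPML1-DL cells induced overnight with Tet: a 110 s read after compound pin addition, then a 110 s antagonist read after challenge with 54-4 at 4 uM final (EC80).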
Active calls of the source: *; ? = inconclusive; nt = not tested or not shown; [ ] = another dose, or the depositor's remark.

structure,TRPML1 agonist,ClpP mod,gsp agonist,Menin-MLL FL inh,gsp antag,TRPML1 inh
COc1ccc2c(c1)c(C(=O)N/N=C/c1cccs1)c(C)n2C,-0.4,-1.9%,5.6%,-1.3,-12.1%,38.7
Cc1cc2oc(=O)cc(CSc3nc(N)cc(N)n3)c2cc1C,0.7,-3.0%,-31.3%,1.4,-12.8%,2.7
Cc1ccccc1-n1c(C)nnc1SCC(=O)NCC1CCCO1 (stereo unspecified),-0.5,1.5%,2.3%,-0.2,6.2%,12.1
Cc1ccc(C(C)c2c(C)c([N+](=O)[O-])cc(C)c2[N+](=O)[O-])cn1 (stereo unspecified),-0.2,0.0%,-1.5%[15.4 µM],-4.1,-28.1%,8.9
COc1ccc(S(=O)(=O)N2CCCCCC2)cc1C(=O)NC1(C)CCS(=O)(=O)C1 (stereo unspecified),-0.4,-5.8%,7.9%[15.4 µM],nt,8.0%,19.8
O=C(NCc1cccc(Cl)c1)c1ccco1,0.6,-1.2%,-19.0%,1.5,9.4%,-1.7
Cc1cccc(OCC2CCCN(Cc3nc(C4CC4)no3)C2)c1 (stereo unspecified),-0.9,-0.5%,-13.9%,-3.1,3.0%,-7.0
Cn1c(SCC(=O)NCc2ccc3c(c2)OCO3)nc2c(c1=O)SCC2,0.2,-1.5%,-3.3%[15.4 µM],nt,0.2%,9.9
Cc1cnn(-c2cc(N/N=C/c3cccc(F)c3)ncn2)c1,0.9,-2.1%,2.6%[15.4 µM],-4.1,7.7%,22.3
Cc1cc(=O)oc2cc(NC(=O)CCOc3ccccc3)ccc12,0.7,nt,-0.8%[15.4 µM],4.6,-1.1%,21.2
COc1ccc(OC(C)c2nc3ccccc3[nH]2)cc1 (stereo unspecified),-0.1,0.5%,nt,nt,nt,28.8
Nc1nc(Cl)cc(N2CCC(c3cc(-c4ccc(Cl)cc4)n[nH]3)CC2)n1,2.4,-0.7%,-10.7%,-1.2,?,-3.3
CCOC(=O)c1sc(NC(=O)C2CC(=O)N(c3ccc4c(c3)OCCO4)C2)nc1C (stereo unspecified),-0.7,0.3%,-0.9%,nt,-16.6%,-5.0
CC1CCCCN1CCNC(=O)c1ccc2c(c1)N(Cc1ccccc1F)C(=O)c1ccccc1S2=O (stereo unspecified),0.7,-3.3%,-1.6%,-12.8,5.9%,-10.4
CCCNC(=O)C(=O)NCc1ccccn1,3.1,-0.2%,-1.7%,-8.9,11.5%,12.2
Cc1ccc(-c2nc(N/N=C/c3cccnc3)c3ccccc3n2)cc1,0.0,-5.0%,-72.5%,3.1,-4.9%,18.8
Cc1c(-c2nc(N)nc(Nc3ccc(F)cc3)n2)oc2ccccc12,4.7,16.3%,3.0%,3.7,?,16.6
Cc1cc(NC(=O)c2ccccc2C)n(-c2cccc(F)c2)n1,-0.7,-2.0%,7.1%[15.4 µM],4.5,2.3%,-4.6
CC1CCN(C(=O)Cn2c(SCC(=O)Nc3ccc(F)cc3)nc3ccccc32)CC1,-0.8,-1.9%,nt,nt,nt,3.0
O=[N+]([O-])c1ccccc1S(=O)(=O)c1ccccc1,nt,-0.9%,-30.1%[inhibitor],0.4,4.8%,nt
COc1ccc(S(=O)(=O)N2CCOCC2)cc1NC(=O)CN(C)CC(=O)Nc1cccc(F)c1,0.1,-2.1%,-5.8%,nt,-3.6%,5.7
COc1cccc(CC(=O)N2CCC(n3nccc3NC(=O)C3CC3)CC2)c1,-0.3,-0.2%,-7.6%[15.4 µM],nt,19.5%,9.8
CC(=O)Nc1ccc(NC(=O)c2ccc(CN3CCc4ccccc4C3)cc2)cc1,-0.9,-0.1%,-5.9%[15.4 µM],4.0,8.6%,-5.7
CC(=O)N(C(C)=O)N1C(=O)c2cccc3c(N4CCOCC4)ccc(c23)C1=O,-0.4,-4.2%,16.0%,?,-16.5%,-14.3
COc1cc2c(cc1OC)CN(C(=O)CN1CCN(S(=O)(=O)c3ccc(C)c(C)c3)CC1)CC2,-1.2,0.0%,-0.5%,nt,-15.4%,17.3
CC12CCC(=O)C=C1CCC1C2C(O)CC2(C)C1CCC21OCC1=O (stereo unspecified),1.2,nt,16.5%,nt,8.5%,-9.3
COc1cc(/C=N/NC(=O)c2cc(-c3ccccc3)sc2N)cc(OC)c1OC,-0.6,-2.3%,6.6%[15.4 µM],0.9,-9.9%,6.5
O=C(Nc1cccc2c1CCCC2)N1CCOc2ccc(Cl)cc21,3.9,-7.2%,nt,nt,nt,-23.7
N#Cc1c(N2CCCC2)nc(N)c2c(N)nc(N3CCCC3)cc12,2.3,7.94µM*,?,-0.4,4.5%,-9.2
CCOC(=O)C1=C(C)NC(C)=C(C(=O)OCC)C1c1sccc1C,2.9,-4.3%,-13.2%,6.6,-4.0%,95.3
S=C(Nc1ccc(Oc2ccc(NC(=S)NC3CCCCC3)cc2)cc1)NC1CCCCC1,1.1,0.1%,0.0%,-2.1,-3.8%,-18.1
CC1Cc2ccccc2N1CC(=O)Nc1ccc2c(c1)OC(F)(F)O2 (stereo unspecified),1.4,-0.3%,-1.3%,0.4,-1.8%,2.6
Cc1ccc(-n2c(SCC(=O)NCc3ccccc3)nc3c([nH]c4ccccc43)c2=O)cc1,2.1,-15.8%,nt,nt,nt,3.5
CC(Sc1nc(N)cc(=O)[nH]1)C(=O)Nc1sc2c(c1C#N)CCCC2 (stereo unspecified),-0.4,nt,3.6%[15.4 µM],0.6,-43.3%,1.5
O=C(c1ccco1)N1CCN(C(=O)c2cc(-c3ccccn3)nc3ccccc23)CC1,0.6,-2.0%,25.7%,2.1,-14.3%,-7.7
CC(C)CNC(=O)c1ccccc1NC(=O)/C=C/c1cccc([N+](=O)[O-])c1,-0.8,-2.0%,16.0%,2.1,10.1%,-24.9
CC(C)Cn1c(CN2CCN(C)C(CCO)C2)nc2ccccc21 (stereo unspecified),-0.5,0.3%,0.9%,0.2,5.6%,-3.5
CCCOc1ccc(C(C)=O)cc1CC(C(N)=O)C(N)=O,-1.1,-1.2%,9.5%,-1.3,3.0%,7.5
O=C(NCCc1csc(-c2cccc(F)c2)n1)c1ccccc1C(F)(F)F,1.3,-19.3%,nt,nt,nt,24.3
COc1ccc(CC(=O)Nc2ccc3c(c2)C(=O)N(CCC(=O)O)C3=O)cc1,-0.7,-1.5%,1.7%,0.1,-3.3%,4.1
COc1ccc(/C=C2\SC(=S)N(CCC(=O)N(CCO)Cc3ccccc3)C2=O)cc1OC,nt,-2.0%,-36.2%[inhibitor],-6.6,-15.0%,nt
CC(=O)NCCn1c(SCC(=O)NC2CCCCC2)nc2ccccc2c1=O,-0.4,31.6µM*,-9.5%[15.4 µM],-2.5,-3.6%,-1.3
C[C@@H](NC(=O)CN(c1ccccc1)S(=O)(=O)N(C)C)c1ccccc1,1.4,0.8%,nt,nt,nt,6.6
COc1ccc(Cl)cc1NC(=O)Cn1c(=O)n(Cc2cccs2)c(=O)c2cccnc21,1.7,?,nt,nt,nt,5.8
O=C(NC1CCCCC1)N1CCN(c2ccccc2)CC1,0.4,-1.5%,4.6%,2.7,12.8%,15.4
COc1cccc(-c2nnc(SCC(=O)N3CCCc4ccccc43)o2)c1,-0.3,-4.4%,?,8.2,-7.0%,0.6
O=C(Nc1nc(-c2ccccn2)cs1)Nc1ccc(F)cc1F,1.3,-2.4%,-73.9%[inhibitor],1.1,-15.3%,?
COc1ccc(/C=C2/SC(=S)N(c3ccc(S(=O)(=O)Nc4nccs4)cc3)C2=O)cc1,0.4,nt,9.3%[15.4 µM],4.2,31.6µM*,3.2
CC(=O)c1cccc(Nc2nc(-c3ccccc3Cl)nc3ccccc23)c1,2.2,-12.8%,nt,nt,nt,18.5
CSCc1cc(N(C)c2ccccc2)nc(-c2ccccc2)n1,-0.3,-6.2%,12.3%,4.4,?,4.6
Cn1nnc2c(N3CCN(c4ccccc4)CC3)ncnc21,-0.5,-2.5%,nt,nt,nt,-12.6
O=C1c2ccccc2C(=O)C1c1ccncc1,-0.6,-0.7%,?,2.2,2.8%,23.0
O=C(CSc1nnnn1-c1ccccc1)c1cc2ccccc2oc1=O,-0.3,-1.2%,10.3%,10.9,5.8%,-5.5
Cc1ccc(O)c(CNc2nccs2)c1,-0.4,nt,-27.2%,-0.6,13.8%,6.3
CCOC(=O)C1CCN(S(=O)(=O)c2ccc3c(c2)CC(C)N3C(=O)C2CC2)CC1 (stereo unspecified),2.7,0.9%,-37.3%,3.5,?,-15.5
NC(=O)c1ccccc1NC(=O)CC1(CC(=O)O)CCCC1,-0.4,nt,-8.1%[15.4 µM],0.1,3.5%,8.3
Cc1cc(C)cc(N(CC(=O)NC2CCC(C)CC2)S(=O)(=O)c2c(C)noc2C)c1 (stereo unspecified),1.4,0.8%,19.5%,-1.0,-4.6%,-2.6
CN(C(=S)Nc1ccc(Oc2ccccc2)cc1)C1CCCCC1,0.6,nt,-9.8%,9.6,?,32.4
CC(C)(C)NC(=O)NC(=O)COC(=O)Cc1c(Cl)cccc1Cl,-0.3,nt,?,0.8,-2.0%,-9.9
Cc1ccccc1CN1CCN(CC(=O)NCc2ccc3c(c2)OCO3)C1=O,3.0,-2.9%,16.9%,-1.4,1.8%,8.7

(more compounds)
structure,TRPML1 agonist,ClpP mod,gsp agonist,Menin-MLL FL inh,gsp antag,TRPML1 inh
O=C(CN1CCN(S(=O)(=O)/C=C/c2ccccc2)CC1)NC(=O)NCc1ccco1,0.4,1.5%,-13.7%,1.4,-0.3%,-4.2
COc1ccc(NC(C)=O)cc1S(=O)(=O)NC(C)c1ccc(-n2ccnc2)cc1 (stereo unspecified),0.2,0.4%,15.3%,nt,4.3%,12.2
COc1cccc(C(=O)Nc2cc(NC(=O)c3cccs3)ccc2C)c1,1.8,0.0%,3.9%,4.5,-28.7%,-2.8
Cn1c(N)c(N=O)c(=O)n(C)c1=S,-0.1,nt,-30.5%[inhibitor],nt,-11.7%,3.7
Cc1c(C(=O)N(Cc2ccccc2F)C2CCS(=O)(=O)C2)oc2ccc(F)cc12 (stereo unspecified),0.8,1.1%,nt,nt,nt,16.2
O=C(O)c1ccc(CNCc2ccc(F)cc2)cc1,1.2,nt,5.7%[15.4 µM],-0.4,8.4%,1.3
COc1ccc(CC(=O)N(Cc2ccccc2)c2ccc(C)cc2)cc1S(=O)(=O)N1CCOCC1,0.1,25.1µM*,-1.9%[15.4 µM],nt,-17.3%,27.6
CCCOc1ccc(C(CC(=O)O)NS(=O)(=O)c2ccc(NC(C)=O)cc2)cc1 (stereo unspecified),-1.1,1.1%,-9.4%,2.2,12.5%,-6.8

From PubChem BioAssay
